Screening results: PubChem, National Center for Advancing Translational Sciences (NCATS)
MARV entry inh: Marburg virus entry inhibition; AID 540276; 1.8% of 300,000 active; Marburg virus pseudotyped entry inhibition, cell reporter; control for the full effect not named in the record; about a third of the inactives were read at about 46 µM; Potency, µM (titrated, usually from 37.8 µM), for inactives: at the top dose activity change, negative = inhibition, usual class: inhibitors; active = well fitted inhibition curve with a large enough effect; inconclusive = small, poorly fitted or top-dose-only effect, or effect the other way; inactive = flat fitted curve, though single readings scatter; tested in HEK293 cells; about a fifth of its hits are not listed in these tables; note: % is set by controls: 0 for no effect and ±100 for the full control effect; luciferase read-out
SARS PLP yeast: SARS-CoV PLP inhibition in yeast. S. cerevisiae expressing SARS-CoV PLpro, growth rescue; control for the full effect not named in the record. Potency, µM (top dose mostly 32.9 µM), without a hit: at the highest dose activity, positive = growth rescue. 0.19% of 330,000 active; active means well fitted rising curve with a large enough effect; inconclusive means small, poorly fitted or top-dose-only effect; inactive means no such curve, though single readings can be large or run the other way; note: 0% is about no effect; nearly all actives have a fitted effect of over 55% in size; growth read by luminescence after 48 h
LASV entry inh: Lassa virus entry inhibition | Lassa virus pseudotype entry inhibition, cell reporter; control for the full effect not named in the record | 1.2% of 300,000 active | AID 540256 | Potency, µM (doses to about 37.9 µM), without a hit: at the top dose activity change, negative = inhibition, most hits filed as inhibitors; active means well fitted inhibition curve with a large enough effect; inconclusive means small, poorly fitted or top-dose-only effect, or effect the other way; inactive means flat fitted curve, though single readings scatter; tested in HEK293 cells; note: % is set by controls: 0 for no effect and ±100 for the full control effect; nearly all actives have a fitted effect of over 50% in size; luciferase read-out
NS1 function inh: blocks influenza NS1 protein function; S. cerevisiae slowed by influenza A NS1, growth recovery by OD600; Potency, µM (top dose mostly 46.1 µM), for the others: at the highest dose activity, positive = more growth; 0.4% of 270,000 active; AID 2326; active means well fitted rising curve with a large enough effect; inconclusive means small, poorly fitted or top-dose-only effect; inactive means no such curve, though single readings can be large or run the other way; note: nearly all actives have a fitted effect of over 50% in size
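In this qHTS, NS1 from influenza A is expressed in budding yeast, where it slows growth. Cells are switched from glucose to 2% galactose medium (pH 6.0, -URA), treated with compound, and growth recovery is read at OD600.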
Cruzain noTriton: blocks cruzain activity in detergent-free assay. Potency, µM, inactives show max response, negative = inhibition, most hits filed as inhibitors. purified cruzain, Z-FR-AMC fluorescence, no detergent. 2.3% of 200,000 active;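 note: plate controls were enzyme without inhibitor for no effect and buffer without enzyme for full effect; nearly all actives have a fitted effect of over 40% in size; top concentration of the series not given in the record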
Target sequence (P25779 123-467 limits assumed): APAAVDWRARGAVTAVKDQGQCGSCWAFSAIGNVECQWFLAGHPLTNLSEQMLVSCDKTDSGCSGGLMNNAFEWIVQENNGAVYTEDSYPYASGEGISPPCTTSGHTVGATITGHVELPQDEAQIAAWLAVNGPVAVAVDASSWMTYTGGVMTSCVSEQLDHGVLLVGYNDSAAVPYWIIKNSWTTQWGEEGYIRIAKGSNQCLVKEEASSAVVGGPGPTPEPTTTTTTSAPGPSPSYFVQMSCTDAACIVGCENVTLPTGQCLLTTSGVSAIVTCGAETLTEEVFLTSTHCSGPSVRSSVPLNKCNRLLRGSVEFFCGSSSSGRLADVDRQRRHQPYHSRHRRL
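Purified cruzain at 1.5 nM, pre-incubated 15 min with compound at room temperature in 100 mM sodium acetate pH 5.5, 5 mM DTT, 0.00005% Triton X-100. Reaction started with 2 uM Z-FR-AMC; AMC fluorescence increase over 60 s gives rate.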
RE007 growth inh: less growth of the S. pombe RE007 Vpr strain. S. pombe RE007 Vpr strain, BacTiter-Glo ATP luminescence, 24 h; control for the full effect not named in the record. Potency, µM (top dose mostly 92.2 µM), for inactives: at the highest dose activity change, negative = less growth. AID 651644. 0.21% of 360,000 active; active = well fitted falling curve with a large enough effect; inconclusive = small, poorly fitted or top-dose-only effect; inactive = no such curve, though single readings can be large or run the other way;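 note: % is set by controls: 0 for no effect and ±100 for the full control effect; nearly all actives have a fitted effect of over 50% in size; the assay follows cell death caused by Vpr and the record does not say whether a fall means rescue or toxicity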
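Fission yeast strain RE007, carrying one chromosomally integrated HIV-1 vpr copy, was seeded at OD 0.01 in PMG+AL medium with 23 nL pinned compound. After 24 h at 30 °C and 99% humidity, viability was read by BacTiter-Glo luminescence.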
2A StopGo: FMDV 2A StopGo reporter, luciferase signal | 1.2% of 410,000 active | Potency, µM (highest dose often 57.9 µM), for the others: top-dose signal change, negative = less light | human cells with a luciferase reporter of 2A StopGo recoding; control for the full effect not named in the record; active = well fitted falling curve with a large enough effect; inconclusive = small, poorly fitted or top-dose-only effect; inactive = no such curve, though single readings can be large or run the other way; tested in HEK293T cells; note: % is set by controls: 0 for no effect and ±100 for the full control effect; nearly all actives have a fitted effect of over 45% in size; luciferase light after 4 h
Cruzain inh Det: cruzain (T. cruzi) inhibition with detergent. P25779. purified cruzain, Z-FR-AMC fluorescence, 0.01% Triton. Potency, µM, without a hit: max response, negative = inhibition, hits mostly inhibitors. 0.43% of 200,000 active;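 note: plate controls were neutral wells for no effect and buffer without enzyme for full effect; nearly all actives have a fitted effect of over 40% in size; top concentration of the series not given in the record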
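Steps: dispense cruzain (1.5 nM final) in acetate buffer pH 5.5 with DTT and 0.01% Triton X-100; pin-transfer compounds; incubate 15 min RT; add Z-FR-AMC (2 uM final); read fluorescence every 30 s, using the 60 s intensity change.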
The depositor's hits bear a star; ? = inconclusive; nt = no result given; & = joins results of further samples; [ ] = another dose, or the depositor's remark. Unless noted, calls come from the whole dose curve; as a rule, active = well fitted curve in the direction sought with a large enough effect; inconclusive = small, poorly fitted or top-dose-only effect, or another doubt; inactive = no such curve, though single readings can be large; an effect the other way counts as inactive or inconclusive. Potency is the fitted concentration of half-maximal effect.

Order of results: 2A StopGo, MARV entry inh, SARS PLP yeast, Cruzain noTriton, LASV entry inh, NS1 function inh, RE007 growth inh, Cruzain inh Det
- Cc1oc2ncn(CC(C)C)c(=O)c2c1C(=O)NCCCN(Cc1ccccc1)C(C)C
    0.0%, nt, nt, -9.2%, 19.4%[46.1 µM], nt, nt, 1.8%
- Cc1cccc(C)c1NC(=O)CCCSc1nnc(-c2ccc(F)cc2)n1-c1ccccc1
    ?, ?, 10.7%, -8.2%, ?, -6.9%, nt, -2.6%
- COC(=O)c1c(C(=O)OC)c2cccc3cc(-c4ccccc4)c4ccc1c4n32
    -12.5%, 1.5%, -10.1%, 2.9%, 0.8%, 9.5%, 2.1%, 0.8%
- Cc1c(C#N)c(=O)oc2ccc3ccccc3c12
    -2.9%, ?, -8.8%, 4.3%, -1.2%, 10.1%, -3.2%, 0.9%
- CCOC(=O)C1=C(O)CSC1=Nc1ccccc1
    -18.5%, 11.0%, 3.8%, -11.4%, 1.9%, -9.7%, -6.7%, 1.2%
- Cc1cc(C)cc(NC(=O)COC(=O)[C@@H](NC(=O)c2ccco2)C(C)C)c1
    -4.2%, -17.3%[46.1 µM], -3.6%, nt, -1.5%, nt, -14.7%, nt
- O=C(CC(=O)N/N=C/c1c(Cl)cccc1Cl)NCc1cccnc1
    -21.7%, 1.8%, -0.3%, nt, 14.7%, 1.8%, -5.3%, nt
- O=C(NCc1ccc(Cl)cc1)C(=O)NCC(c1cccnc1)N1CCN(c2ccc(F)cc2)CC1 (stereo not drawn)
    ?, ?, -5.4%, nt, ?, nt, 9.5%, nt
- Cc1c(C(=O)N2CCN(c3ncccn3)CC2)oc2c(Cl)cccc12
    ?, -3.5%, 1.4%, nt, ?, nt, -8.5%, nt
- Cc1ccc(-n2nc(C)c3c(C(=O)Nc4ccccc4C(F)(F)F)cc(C)nc32)cc1
    10.4%, nt, nt, 1.7%, -2.1%[46.1 µM], nt, nt, -7.4%

Not a retest: an excerpt of the list.
Order of results: 2A StopGo, MARV entry inh, SARS PLP yeast, Cruzain noTriton, LASV entry inh, NS1 function inh, RE007 growth inh, Cruzain inh Det
- O=C(CC(=O)N/N=C/c1c(Cl)cccc1Cl)NCc1cccnc1
    -21.7%, 1.8%, -0.3%, nt, 14.7%, 1.8%, -5.3%, nt
- O=C(NCc1ccc(Cl)cc1)C(=O)NCC(c1cccnc1)N1CCN(c2ccc(F)cc2)CC1 (stereo not drawn)
    ?, ?, -5.4%, nt, ?, nt, 9.5%, nt
- Cc1c(C(=O)N2CCN(c3ncccn3)CC2)oc2c(Cl)cccc12
    ?, -3.5%, 1.4%, nt, ?, nt, -8.5%, nt

New compounds follow.
Order of results: 2A StopGo, MARV entry inh, SARS PLP yeast, Cruzain noTriton, LASV entry inh, NS1 function inh, RE007 growth inh, Cruzain inh Det
- CCOc1ccccc1CNC(=O)c1cc2oc3ccccc3c2n1C
    0.7%, ?, -3.0%, ?, ?, -7.0%, 2.1%, -17.7%
- CCCC(=O)N(CCN1CCOCC1)c1nc2c(F)cc(F)cc2s1
    12.7%, nt, -1.2%, nt, nt, -24.2%, 9.0%, nt
- CCOCCCNC(=O)c1cc(Sc2ccc(F)cc2)nc2ccccc12
    -17.1%, ?, -12.4%, 7.1%, ?, -5.5%, 28.8%, -4.5%
- NC1=NC2(CCN(Cc3ccccc3)CC2)n2c(nc3ccccc32)N1
    0.0%, ?, -0.7%, 20.3%, -2.2%, -4.4%, -8.6%, 3.8%
- Cc1ccc(C(=O)NC(C)c2ccc(-n3ccnc3)cc2)c(C)c1 (stereo not drawn)
    -1.0%, nt, 26.8%, nt, nt, -0.9%, 22.5%, nt
- Fc1ccc(-c2cc(-c3nc(-c4cccc(Cl)c4)no3)[nH]n2)cc1
    2.0%, nt, nt, 3.0%, 24.4%[46.1 µM], nt, nt, 3.0%
- CN(CCc1ccccn1)C(=O)CCc1nnc(CCCc2ccccc2)o1
    37.5%[activator], ?, -0.3%, nt, ?, 0.0%, -9.2%, nt
- Brc1ccc(-c2csc(N3CCC(c4ccccc4)C3)n2)cc1 (stereo not drawn)
    31.6%[activator], 13.4%, -2.4%, -25.4%, -11.6%, 1.0%, 11.9%, 1.0%
- CCN(CC)S(=O)(=O)c1cccc(NC(=O)CN2C(=O)NC3(CCOc4ccccc43)C2=O)c1 (stereo not drawn)
    -21.9%, -0.5%, -2.6%, nt, -25.8%, nt, -26.0%, nt
- COc1c2ccoc2cc2oc(C)cc(=O)c12
    -9.3%&0.1%, nt, nt, -7.2%, nt, nt, 7.3%, 1.6%
- Cc1nc(-c2ccccn2)nc(N2CCOCC2)c1Cl
    -21.7%, 4.0%[46.1 µM], 2.0%, nt, ?, 7.0%, -1.7%, nt
- COC(=O)c1c(NC(=O)CCCC(=O)O)sc2c1CCCCC2
    5.8%, 4.3%[46.1 µM], 0.3%, nt, ?, -1.9%, -6.2%, nt
- CCc1ccc2oc(-c3ccc(N)cc3)nc2c1
    -53.6%, 5.17µM*, -1.5%, 13.5%, ?, -112.1%, 11.2µM*, -3.3%
- O=C1CSC(c2ccncc2)N1Cc1ccccc1 (stereo not drawn)
    -4.6%, -13.4%[46.1 µM], 0.4%, nt, 1.7%[46.1 µM], 4.0%, -2.4%, nt
- Cc1cc(C)nc(SCCC(=O)Nc2ccccc2C)n1
    -9.9%, 16.5%, 6.2%, 0.0%, 1.6%, -29.9%, 23.6%, 4.4%
- Cc1cccc(NC(=S)NCc2ccccn2)c1
    55.4%[activator], 6.4%, 21.8%, -5.7%, 15.9%, -9.8%, -11.5%, 2.9%
- CCCSc1nc(C)c(CC(=O)OCC)c(=O)[nH]1
    -0.9%, 0.3%&0.3%, 3.2%, -4.4%, 8.2%, 8.8%, 6.5%, 3.3%
- CN(Cc1ccccc1NCC(=O)Nc1ccccc1C#N)C1CCCCC1
    -5.2%, ?, -3.1%, nt, -24.2%[46.1 µM], nt, -8.0%, nt
- CC(=O)Nc1ccc(Nc2nc3ccccc3n3cnnc23)cc1
    -15.2%, nt, 1.0%, nt, nt, 2.2%, 0.0%, nt
- CC(C)c1ccc(/C=C2\C(=N)N3N=C(CC(=O)N4CCCCC4)SC3=NC2=O)cc1
    -4.8%, nt, 12.7%, nt, nt, 15.3%, -6.4%, nt
- Cc1ccc(S(=O)(=O)NCC(=O)OCC(=O)NCc2ccc3c(c2)OCO3)cc1
    -16.1%, -3.8%[46.1 µM], 2.1%, nt, 11.7%, nt, -5.3%, nt
- CC(NC(=S)Nc1ccc(F)cc1)C(c1cccs1)N1CCOCC1 (stereo not drawn)
    -9.1%, nt, -0.1%, nt, nt, -6.1%, -2.8%, nt
- CCOC(=O)N1CCN(C(=O)c2ccc(S(=O)(=O)Nc3ccccc3)cc2)CC1
    0.0%, -22.4%, -0.7%, nt, -0.4%, nt, -13.4%, nt
- Cn1c(N)c(C(=O)COC(=O)CCCOc2ccc(Cl)cc2Cl)c(=O)n(C)c1=O
    -7.7%, 10.3%[46.1 µM], -1.4%, nt, 5.2%[46.1 µM], 8.7%, -16.3%, nt
- CC(=O)NC1Sc2ccccc2N=C1c1ccccc1 (stereo not drawn)
    15.6%, ?, -8.1%, -0.1%, 1.4%, -73.4%, -20.2%, -6.0%
- O=C(CC(Nc1ccccc1Cl)C(=O)OCC(=O)c1cccs1)c1ccccc1 (stereo not drawn)
    16.0%, 5.5%, -14.4%, ?, 8.9%, -21.5%, -0.8%[3.69 µM], -1.6%
- Fc1ccc(OCc2nn3c(Cn4nnc5ccccc54)nnc3s2)cc1
    -6.7%, ?, 0.4%, -3.4%, -11.5%, -44.1%, 11.5%, -4.7%
- CCOc1cccc(C(=O)Nc2nc(-c3ccc(S(=O)(=O)N4CCOCC4)cc3)cs2)c1
    17.8µM*, -1.1%, 2.2%, ?, ?, 11.3%, 14.6%, -7.4%
- Cc1ccc(S(=O)(=O)N(C)C)cc1NC(=O)COC(=O)CCC(=O)c1cccs1
    9.2%, 1.5%[46.1 µM], 1.8%, nt, -7.7%, -0.8%, -4.7%, nt
- Cc1noc(NS(=O)(=O)c2ccc(NC(=O)c3cnc4scc(C)n4c3=O)cc2)c1C
    -10.6%, nt, -1.7%, ?, nt, -89.6%, -1.4%, -2.4%
- CC(=O)c1cc(NC(=O)c2cccc(C(F)(F)F)c2)c(=O)oc1C
    -21.4%, ?, -6.5%, nt, -27.4%, 4.0%, 6.4%, nt
- O=C(NC1CC1)C1=C[C@H](C2CC2)C[C@H](OCCCCO)O1
    -9.8%, nt, 0.9%, nt, nt, 2.0%, 11.1%, nt
- O=C1c2ccccc2C(=O)N1C/C=C/c1ccccc1
    15.1%, 11.4%, -3.3%, -2.8%, 0.0%, 1.2%, 21.0%, -1.4%
- Cc1cc(C)c(C)c(N=Nc2nc3ccccc3n2C)c1C
    ?, ?, -51.0%, 6.2%, ?, -22.0%, -17.1%, -9.9%
- COc1ccc(CNC(=O)C(C)NC(=O)c2cc3ccccc3o2)cc1 (stereo not drawn)
    -18.8%, -9.5%, 1.9%, ?, -6.3%, 8.3%, 0.8%, -4.2%
- COc1ccc(-c2noc(CNC(=O)CCCN3C(=O)[C@H]4CC=CC[C@H]4C3=O)n2)cc1
    -8.2%, nt, -2.5%, nt, nt, -3.1%, -0.5%, nt

Record cards (already shown). Values in the order: 2A StopGo | MARV entry inh | SARS PLP yeast | Cruzain noTriton | LASV entry inh | NS1 function inh | RE007 growth inh | Cruzain inh Det
Entry for CC(=O)c1cc(NC(=O)c2cccc(C(F)(F)F)c2)c(=O)oc1C : -21.4% | ? | -6.5% | nt | -27.4% | 4.0% | 6.4% | nt
Entry for O=C(NC1CC1)C1=C[C@H](C2CC2)C[C@H](OCCCCO)O1 : -9.8% | nt | 0.9% | nt | nt | 2.0% | 11.1% | nt
